Compound activity from PubChem BioAssay.
ALR H2O2 inh – inhibitors of human sulfhydryl oxidase ALR. purified ALR, DTT oxidation, H2O2 HRP-luminol luminescence. inhibition, % (concentration not given with the values). hit rate 3.8% among 290,000. AID 485317;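 active means mean and each replicate at 75% or more; inconclusive means only one of the two met; inactive means neither met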;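 further: stock transfer was 7.5 nL into about 7.5 µL; 0% = neutral wells and 100% = wells with inactivated enzyme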
LANA-H2B inh – blocks KSHV LANA binding to histone H2A/H2B; Q9QR71; cell-free LANA-H2A/H2B peptide, fluorescence polarization; inhibition, % (test concentration not listed); hit rate 0.6% among 320,000; in the data active means inhibition mostly above about 10%, no sharp cut-off; inactive means mostly below about 6.7%;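 further: stock transfer was 7.5 nL into about 10 µL; 0% = median of vehicle wells and 100% = median of positive control wells; one replicate is shown; the record names a cut of 25% in any replicate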
HNF4A DNA FP – change in binding of human HNF4 alpha to DNA. P41235. HNF4a-FITC DNA binding, fluorescence polarization, 1 h. activity change, % at 10 µM. hit rate 0.3% among 360,000. AID 1224865; in the data active means activity change above about 30%, passing the limit was not always enough;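 further: controls were the assay level and a saturating level of protein; the project sought stronger binding though the title names inhibitors; some compounds called inactive have numbers as strong as hits; positive values seem to mean higher polarization but the record does not say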
Target sequence (P41235 whole entry, looked up): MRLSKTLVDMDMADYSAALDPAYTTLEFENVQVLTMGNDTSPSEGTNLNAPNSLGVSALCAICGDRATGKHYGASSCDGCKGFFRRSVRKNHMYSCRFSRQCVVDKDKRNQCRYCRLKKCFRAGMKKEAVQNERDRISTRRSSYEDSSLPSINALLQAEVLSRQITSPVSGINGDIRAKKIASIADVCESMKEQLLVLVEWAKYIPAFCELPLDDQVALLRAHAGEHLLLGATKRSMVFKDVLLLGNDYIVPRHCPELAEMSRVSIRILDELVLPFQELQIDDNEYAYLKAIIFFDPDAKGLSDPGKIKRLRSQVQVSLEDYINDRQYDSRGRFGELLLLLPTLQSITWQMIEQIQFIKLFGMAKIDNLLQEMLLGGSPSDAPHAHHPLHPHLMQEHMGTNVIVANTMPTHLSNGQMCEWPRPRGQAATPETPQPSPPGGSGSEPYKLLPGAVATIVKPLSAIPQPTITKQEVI
RanGTP-Imp inh – inhibitors of RanGTP-importin-beta interaction, primary screen, biochemical, FRET, CFP-Ran, YFP-importin-beta, homogeneous | cell-free CFP-Ran/YFP-importin-beta FRET ratio | inhibition, % (no concentration beside the values) | hit rate 1.1% among 300,000 | AID 2216;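 active means most replicates above 15%; inconclusive means exactly half above 15%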;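 further: 0% = DMSO wells and 100% = Ran loaded with GDP instead of GTP; wells of about 40 µL received 100 nL stock; the first replicate is given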
Vif TR-FRET – inhibitors of Vif binding to APOBEC3G peptide, primary screen, biochemical, TR-FRET, GST-Vif 1-94, biotin-A3G peptide, dose response retest (AID 1117319). hit rate 0.57% among 260,000. inhibition, %, or IC50 in µM where a hit was titrated. TR-FRET GST-Vif / biotin-A3G peptide binding; higher % means a stronger effect; test concentration not given here; strong numbers were not always called active;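 active means above the screen mean plus three standard deviations and confirmed in dose response; inconclusive means results disagree or hit not tested in dose response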;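 further: Vif residues 1-94 fused to GST binding biotinylated APOBEC3G peptide 110-148; 0% = full assay without inhibitor and 100% = GST in place of GST-Vif; retest series ran down from 100 µM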
Calb FLC – C. albicans growth modulation with fluconazole; C. albicans CaCi-2 (fluconazole-resistant clinical isolate) + fluconazole, Alamar Blue growth, 48 h; growth inhibition, % (concentration not given with the values); hit rate 0.57% among 300,000;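 active means most replicates above 75%; inconclusive means exactly half above 75%; inactive means most below 75%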;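 further: all wells also contain fluconazole at 8 µg/ml as a sub-toxic cotreatment; 0% = median of DMSO wells and 100% = median of geldanamycin control wells; wells of about 8 µL received 7.5 nL stock; the first replicate is given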
Beta2AR agonist – activates human beta-2 adrenergic receptor causing internalization; P07550; Am2.2-beta2AR cells, FAP receptor internalization, flow cytometry; reference of the scale not given here; response, % (test concentration not listed); hit rate 0.43% among 340,000; AID 504454;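 active means response above a set limit, near 3 SD of response in nonfluorescent compounds, cut at about 42% in these data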;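 further: stock transfer was 100 nL into about 11 µL; a reference agonist was the positive control; negative values mostly stem from fluorescent compounds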
Target sequence (P07550 whole entry, looked up): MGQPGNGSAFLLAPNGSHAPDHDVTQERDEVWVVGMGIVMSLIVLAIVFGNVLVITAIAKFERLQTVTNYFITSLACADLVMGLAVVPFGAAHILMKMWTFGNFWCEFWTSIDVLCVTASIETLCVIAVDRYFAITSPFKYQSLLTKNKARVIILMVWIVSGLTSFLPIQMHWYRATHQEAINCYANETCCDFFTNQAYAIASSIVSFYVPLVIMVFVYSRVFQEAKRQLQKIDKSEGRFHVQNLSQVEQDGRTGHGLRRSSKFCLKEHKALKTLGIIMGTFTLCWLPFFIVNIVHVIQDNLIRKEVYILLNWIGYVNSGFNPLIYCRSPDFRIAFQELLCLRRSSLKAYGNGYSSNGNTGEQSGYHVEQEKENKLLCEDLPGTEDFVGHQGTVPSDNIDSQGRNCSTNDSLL
* hit, by the source's call; ? = inconclusive; . = not tested or not shown.

Structure	RanGTP-Imp inh	HNF4A DNA FP	Beta2AR agonist	LANA-H2B inh	Calb FLC	Vif TR-FRET	ALR H2O2 inh
O=C(NCCc1ccc(C(F)(F)F)cc1)C1CCC(=O)N(CCCc2ccccc2)C1 (centres undefined)	1.8	-1.5	-5	-2.3	0	.	6
CCC1CCCCN1S(=O)(=O)c1ccc(C(=O)N(CCCN(C)C)c2nc3cc4c(cc3s2)OCO4)cc1 (centres undefined)	-0.9	3.3	18	4.5	-3	-3%	2
Cc1cc(C)cc(NC(=S)NCc2ccncc2)c1	3.3	-1.0	0	3.2	-17	0%	7
CC(=O)N1CCN(c2ccccc2NC(=O)c2ccc(Br)o2)CC1	3.7	2.5	2	1.9	1	-3%	.
O=C(Nc1cccc(S(=O)(=O)N2CCCCCC2)c1)c1ccc(Cl)nc1	.	-5.2	-1	-0.4	.	3%	-9
COc1ccc(-c2ccc(NS(=O)(=O)c3cc([N+](=O)[O-])c(C)c([N+](=O)[O-])c3)cc2)nn1	-0.1	-3.4	4	1.2	52	.	.
O=C(O)CCN(CCC(=O)O)c1nnc(SCc2ccccc2)s1	-0.1	-0.6	0	5.4	-3	0%	0
CCOC(=O)c1ccc2ncc(-c3ccccc3)nc2c1	7.6	1.6	7	.	12	-10%	.
Cc1cc(C)nc(Nc2n[nH]c(COc3cccc4ccccc34)n2)n1	0.1	2.2	-5	.	11	6%	.
Cc1ccc(C)c(OCCC(=O)OCC(=O)N2CCN(c3ccccc3)CC2)c1	1.3	-0.7	-6	0.4	1	-8%	7
O=C(/C=C/c1cccc([N+](=O)[O-])c1)NCCSCc1cccc(Cl)c1	-4.7	3.4	-7	-1.4	-29	.	2
C#CCN1C(=O)S/C(=C/C=C/c2ccc(N(C)C)cc2)C1=O	.	78*	-34	-1.2	.	1%	.
Cc1cccc(OCCCn2c(CCNC(=O)C(C)C)nc3ccccc32)c1	2.8	2.0	-7	3.8	-5	-2%	-2
CCCC(=O)N(CCc1ccc(OC)cc1)Cc1nc2ccccc2c(=O)[nH]1	6.3	6.5	-12	-6.3	-21	14µM*	2
CC(CCc1ccccc1)NC(=O)COC(=O)c1cccc(N(C)C)c1 (centres undefined)	5.0	2.0	8	-1.5	-3	5%	.
COc1ccc2c(CC(=O)N3CCN(S(=O)(=O)c4ccc(F)cc4)CC3)coc2c1	.	-5.2	-3	-0.9	.	1%	.
OC(CNCc1ccc(F)cc1)(c1ccc(F)cc1)c1ccc(F)cc1	4.1	0.6	4	-0.6	11	7%	2
O=C(CSCCNS(=O)(=O)c1ccccc1)Nc1ccccc1	-2.4	-0.8	2	-1.0	-4	1%	.
COc1cccc(-c2nc3n(n2)C(c2ccccc2Cl)C(C(N)=O)=C(C)N3)c1 (centres undefined)	?	-2.0	4	-7.8	-14	5%	-3
COc1ccccc1COc1ccc2c(C)c(CC(=O)O)c(=O)oc2c1C	1.5	-6.3	0	1.0	-4	.	1
Cc1cc(=O)oc(C)c1C(=O)O	6.5	-1.6	-2	-4.0	2	2%	-1
CC(Cc1c[nH]c2ccccc12)NC(=O)OCCCl (centres undefined)	5.2	-3.9	-7	4.5	8	5%	?
O=C(C1=C[C@@H](c2ccc3c(c2)OCO3)C[C@@H](OCCCCO)O1)N1CCOCC1	0.0	3.5	1	-1.6	-19	15%	-25
COc1ccc(NC(=S)N2CCC(c3nc4ccc(Cl)cc4[nH]3)CC2)c(OC)c1	-5.3	2.0	-4	-0.6	5	19%	-22
CCn1c(C)nc2c(=O)oc3ccccc3c21	4.3	-5.8	-8	-0.2	-13	13%	4
Cc1cc(C)n(-c2ccc(F)cc2CN2CCN(Cc3ccccc3)C(CCO)C2)n1 (centres undefined)	-0.3	2.7	-1	1.1	-8	-5%	-6
O=C(O)c1ccc(Cl)c(S(=O)(=O)N(Cc2ccccc2)c2ccc(F)cc2)c1	-3.0	2.2	5	1.5	5	.	.
Cn1cc(C(=O)C(=O)N2CCOCC2)c2ccccc21	-1.7	0.1	-3	-4.6	-1	.	0
COC(=O)c1cccc(OCC(O)Cn2ccnc2)c1 (centres undefined)	1.2	-0.1	13	0.9	-8	10%	-2
Cc1cc(C)cc(OCC(=O)N(Cc2ccco2)c2c(N)n(Cc3ccccc3)c(=O)[nH]c2=O)c1	.	1.7	2	4.0	.	11%	-2
CCCCNC(=O)c1c(C)cc(=O)oc1C	0.2	0.5	2	1.7	2	21%	7
COc1ccc(S(=O)(=O)N2CCCC(C(=O)NCc3ccncc3)C2)cc1 (centres undefined)	3.2	20	-1	-0.9	-5	?	-5
Cc1cc(C(=O)OCC(=O)NCCc2ccccc2)c2ccccc2n1	.	3.0	-6	2.0	.	-1%	-6
CN(C)NC(=O)C(NC(=O)c1ccc(N)cc1)C12CC3CC(CC(C3)C1)C2 (centres undefined)	-5.4	2.6	2	4.2	-1	?	-18
CC(CCc1ccccc1)NC(=O)CN1CCN(Cc2ccccc2)C1=O (centres undefined)	-0.7	-1.1	-1	-1.5	8	0%	-4
CC(=O)Nc1ccc(S(=O)(=O)N2CCN(C(=O)N3CCCCC3)CC2)cc1	4.4	-1.8	1	-0.5	8	.	-19
Cc1ccc(C(=O)NCCc2nnc(SCC(=O)Nc3cccc(C(=O)O)c3)n2C)cc1	.	11	-8	-0.8	-15	2%	-3
Cc1ccc(S(=O)(=O)N/N=C/c2ccc(OCC(=O)Nc3ccccc3Cl)cc2)cc1	3.6	-0.2	1	-2.6	-4	83%	-5
CNc1snc(C)c1C(=O)OC(C)C(=O)Nc1ccccc1 (centres undefined)	.	-2.6	0	4.7	.	4%	-4
NNC(=S)Nc1cccc(-c2n[nH]c(=S)o2)c1	-1.5	-2.0	3	0.7	1	3%	98*
CC(C)NC(=O)c1onc(CSc2nc3ccccc3[nH]2)c1C(=O)NC(C)C	-2.3	1.3	-12	1.0	3	.	-3
CSc1nsc(NC(=O)Nc2ccccc2)n1	1.6	2.3	12	-3.8	16	.	4
COc1ccc(OCCC(=O)OCC(=O)NC(=O)NC(C)C)cc1	0.4	0.0	2	1.9	-2	2%	4
COc1cc(C(=O)N/C(=C\c2cn(S(=O)(=O)N(C)C)c3ccccc23)C(=O)N2CCCC2)cc(OC)c1OC	-1.4	-4.0	0	-0.7	33	-1%	-1
O=C(NCC(c1ccco1)N1CCN(c2ccccc2)CC1)c1ccco1 (centres undefined)	1.3	-0.2	-8	5.8	-2	-4%	42
C=CCSC1=N/C(=C/c2ccsc2)C(=O)N1c1ccccc1	-1.1	-0.8	3	3.1	-3	4%	-4
Fc1ccc2c(c1)C(c1ccncc1)=NNC(c1cccnc1)=N2	-2.2	-2.3	5	-5.1	81*	-1%	0
N#C/C(=C/c1ccccc1)C(=O)OCC(=O)Nc1ccccc1[N+](=O)[O-]	.	8.9	-4	7.7	.	0%	33
O=C(Nc1cccc(S(=O)(=O)N2CCCCC2)c1)Nc1ccc(Cl)cc1Cl	-2.7	-1.0	7	-3.3	10	1%	-9
O=C(CSc1nnc(-c2ccncc2)n1-c1ccccc1)N1CCN(c2ccc(Cl)cc2)CC1	3.3	1.3	-1	5.9	-12	-9%	5
Cc1cccc(Cn2c(=O)n(Cc3ccco3)c(=O)c3ccccc32)c1	-0.8	1.1	-4	-1.8	-4	-1%	2
CN(C)c1ccc(C(=O)C(=O)c2ccccc2)cc1	2.6	2.3	3	-2.0	-8	.	-4
Cc1[nH]n(-c2ccccc2)c(=O)c1N=Nc1ccccc1C(=O)N1CCCCC1	3.9	-2.3	3	9.1	-8	?	-8
COc1ccc(-c2nc(NC(=O)c3c(C)noc3C)sc2C)cc1	.	-5.9	2	.	.	-70%	.
COc1cc(CCC(=O)Nc2nccs2)cc(OC)c1OC	2.2	1.8	-3	2.5	-11	2%	1
Cc1ccc(S(=O)(=O)NCc2csc(C)n2)cc1	1.4	-0.7	5	-2.9	13	4%	-4
Cn1cc(CNC(=O)Nc2ccc3c(c2)OCO3)cn1	0.3	-2.4	3	-0.7	-6	-4%	.
O=C1c2ccccc2C(=O)N1OCCOCCOCCBr	-2.5	4.4	5	-1.2	2	92µM*	0
COc1ccc(-c2nn(-c3ccccc3C)cc2CNCCc2cnc[nH]2)cc1F	3.3	-4.0	23	5.3	4	7%	4
O=C(NCCCCc1ccccc1)Nc1ccc(F)cc1F	6.1	-2.3	-1	3.5	3	.	1

(further entries)
Structure	RanGTP-Imp inh	HNF4A DNA FP	Beta2AR agonist	LANA-H2B inh	Calb FLC	Vif TR-FRET	ALR H2O2 inh
CCN1C(=O)[C@@H]2[C@@H](c3ccc(-c4ccccc4)cc3)N3CCC[C@@]3(C(=O)OC)[C@@H]2C1=O	.	0.3	-7	5.8	.	.	-11
O=C(CSc1nc(-c2ccccc2)cs1)N1CCc2ccccc21	4.4	-2.6	14	4.2	-7	-5%	-2
CC(NC(=O)C1CCN(C(=O)c2ccc(F)cc2)CC1)c1ccc(-n2ccnc2)cc1 (centres undefined)	.	1.5	-2	-0.2	.	4%	-2
Clc1cc(Cl)c2nc(N3CCCCC3)sc2c1	3.4	-2.3	5	-7.8	-10	17%	-3
Cc1ccccc1OCCC(=O)Nc1ccc(N2CCOCC2)cc1N1CCOCC1	3.0	1.0	-8	4.3	0	0%	52
O=C(NC1CC1)C1Nc2ccc(OC(F)(F)F)cc2C2C=CCC12 (centres undefined)	1.0	-4.7	0	-3.7	6	.	8
CN1C(=O)N(c2ccccc2)C(Nc2nncs2)C1(C)C (centres undefined)	-1.7	1.0	8	4.5	-1	-5%	-5
O=C(O)COc1ccc(Cl)cc1CO	0.4	.	.	-4.6	-1	?	1
Cn1nc(C(F)(F)F)c(-c2cccc(C(F)(F)F)c2)c1NC(=O)Nc1ccc(F)cc1	?	6.6	-9	-1.1	-3	14%	-7
C=CCn1c(C)cc(C(=O)COC(=O)c2n[nH]c(=O)c3ccccc23)c1C	.	-1.3	3	2.5	.	-4%	3
C=CCn1c(SCc2cc(=O)n3ccsc3n2)nc2cc(Cl)ccc2c1=O	3.1	1.4	-22	3.9	7	0%	2
